High-throughput results deposited in PubChem by National Center for Advancing Translational Sciences (NCATS).
VDR inh = blocks the human vitamin D receptor; AID 504847; VDR-SRC2-3 peptide fluorescence polarization, 2 h; Potency, µM, without a hit: max response, negative = inhibition, actives largely listed as inhibitors; actives 0.93% (n = 400,000); P11473; active = well fitted inhibition curve with a large enough effect; inconclusive = small, poorly fitted or top-dose-only effect, or another doubt; inactive = no such curve, though single readings can be large or run the other way; note: series mostly up to about 120 µM
Target sequence (P11473 whole entry, looked up): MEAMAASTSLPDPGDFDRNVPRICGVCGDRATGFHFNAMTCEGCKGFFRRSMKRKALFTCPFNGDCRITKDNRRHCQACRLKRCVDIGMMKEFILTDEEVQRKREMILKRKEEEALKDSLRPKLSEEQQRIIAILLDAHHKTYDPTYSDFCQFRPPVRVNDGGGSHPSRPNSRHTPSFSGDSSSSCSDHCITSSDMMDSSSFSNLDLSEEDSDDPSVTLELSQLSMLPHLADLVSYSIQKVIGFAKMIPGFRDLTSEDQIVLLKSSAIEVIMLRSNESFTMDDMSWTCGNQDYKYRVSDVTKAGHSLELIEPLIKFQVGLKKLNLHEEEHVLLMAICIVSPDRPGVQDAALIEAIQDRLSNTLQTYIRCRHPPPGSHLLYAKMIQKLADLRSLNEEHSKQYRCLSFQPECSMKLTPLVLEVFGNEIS
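FP read-out; VDR + SRC2-3 coactivator peptide; 23 nl compound by pintool; 2 h RT incubation; reagents held at 4 deg C, protected from light.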
* = called active by the depositor; ? = inconclusive; & = joins results of further samples. % is set by controls: 0 for no effect and ±100 for the full control effect; potency is the fitted concentration of half-maximal effect. A portion of the library, so the mix of outcomes need not match the whole.

cpd	Compound	VDR inh
1	C[C@@H]1CCC[C@]2(O[C@H](CCO)C[C@H](O)[C@H]2O)O1	4%
2	O=C(COC(=O)CNC(=O)c1sc2ccccc2c1Cl)Nc1cc(Cl)cc(Cl)c1	8%
3	O=C(COc1ccc2ccccc2c1Br)Nc1ccncc1	12%
4	COc1ccc(C)cc1Nc1n[n+](-c2ccccc2)c(-c2ccc(C(=O)O)cc2)s1	-19%
5	CCCN(c1ccc(C(C)C)cc1)S(=O)(=O)c1ccc2c(c1)oc(=O)n2CC(=O)OCC	2%
6	COc1ccc(COC(=O)C2CCN(S(=O)(=O)c3cccs3)CC2)cc1	2%
7	CCOc1ccc(N=CNc2ccc(OCC)cc2)cc1	-6%
8	CCSc1nnc(NC(=O)CN2C(=O)NC3(CCCC3)C2=O)s1	13%
9	COC(=O)C(C)N1C(=O)S/C(=C/c2cc(C)n(-c3ccccn3)c2C)C1=O (centres undefined)	-13%
10	CCCCCc1ccc(-c2cn(Cc3ccc4ccccc4c3)nn2)cc1	2%
11	COc1ccc(O)c(/C=C2/SC(=S)N(Cc3ccccc3)C2=O)c1	?
12	COc1cc(CN2CCN(CC3CC3)CC2CCO)cc(OC)c1 (centres undefined)	-1%
13	COc1cc(S(=O)(=O)Nc2c(C)nn(C)c2C)ccc1NC(C)=O	-9%
14	O=C(C1CCCO1)N1CCc2ccccc21 (centres undefined)	11%
15	CC(C)(C)NS(=O)(=O)c1ccc(NC(=O)C2CCCO2)cc1 (centres undefined)	1%
16	CC1CCC(C(=O)NC(C(=O)NCCN2CCC(C)CC2)C(C)C)CC1 (centres undefined)	2%
17	Cc1ncc(CO)c2cc(C(=O)Nc3cccc(F)c3)c(=Nc3cccc(C(N)=O)c3)oc12	14%
18	Cc1nn(S(=O)(=O)N2CCOCC2)c(C)c1Br	-6%
19	COc1ccc(C2C(=O)N(C3CCC(C)CC3)CC(=O)N2CCc2ccccc2)cc1OC (centres undefined)	-8%
20	Cc1ccccc1N(CC(=O)N1CCN(c2ccccc2)CC1)S(C)(=O)=O	-11%
21	O=C1CCN(CCCc2ccccc2)CCN1[C@H](CO)Cc1ccccc1	-17%
22	O=C1CCC([N+](=O)[O-])C(c2ccccc2F)N1 (centres undefined)	19%
23	CC1CC2(CC(C)(C(=O)CSc3n[nH]c(-c4ccccc4Cl)n3)OC2=O)C(=O)O1 (centres undefined)	20%
24	CCc1ccccc1NC(=O)c1cc(S(=O)(=O)N2CCc3ccccc32)ccc1F	5%
25	CCCn1nnc(NC(=O)c2ccc(OC)cc2)n1	11%
26	COc1ccc(CCNC(=O)Cn2c(=O)n(-c3cc(F)ccc3F)c(=O)c3sccc32)cc1OC	-12%
27	CCN(CC(=O)Nc1c(F)cccc1F)C(=O)CN(C)S(=O)(=O)c1ccc(F)cc1	-5%
28	Cc1cc(C)n2nc(SCC#N)nc2n1	-19%
29	COc1cccc(CNC(=O)c2ccc(S(=O)(=O)N3CCCC3)cc2)c1	-5%
30	CC(=O)OCC(NC(=O)C(C)NC(=O)OC(C)(C)C)C1OC(n2ccc(=O)[nH]c2=O)C(OC(C)=O)C1OC(C)=O (centres undefined)	-10%

Gathered by group: those above containing an NH in an aromatic ring
cpd	Compound	VDR inh
23	CC1CC2(CC(C)(C(=O)CSc3n[nH]c(-c4ccccc4Cl)n3)OC2=O)C(=O)O1 (centres undefined)	20%
30	CC(=O)OCC(NC(=O)C(C)NC(=O)OC(C)(C)C)C1OC(n2ccc(=O)[nH]c2=O)C(OC(C)=O)C1OC(C)=O (centres undefined)	-10%

Next part
cpd	Compound	VDR inh
31	CCOC(=O)N1CCN(C(=O)CN(Cc2ccccc2)S(=O)(=O)c2ccc(OC)c(C)c2)CC1	18%
32	CCN1C(=O)N[C@@H](c2cccc(F)c2)C(C(C)=O)=C1C	2%
33	O=C(NNC(=O)c1ccc(NC(=O)c2ccccc2)cc1)c1ccc(F)cc1	-5%
34	CC(=O)Nc1ccc(-c2nn[nH]n2)cc1Cl	-1%
35	Cc1ccc(NC(=S)N/N=C/c2c(Cl)cccc2Cl)c(C)c1	-11%
36	CN(C)c1ccc(C=C2C(=O)OC(C)(C(C)(C)C)OC2=O)cc1 (centres undefined)	-2%
37	CC(=O)Nc1cc2c(cc1NC(=O)Cn1nc(-c3ccccc3F)ccc1=O)OCCO2	-4%
38	C[C@H](CO)N1C[C@H](C)[C@@H](CN(C)S(=O)(=O)c2cccs2)Oc2c(NS(=O)(=O)c3ccc(F)cc3)cccc2C1=O	-6%
39	O=C(/C=C/c1ccco1)N/C(=C\c1ccco1)C(=O)NCCc1nc2ccccc2[nH]1	-6%
40	COc1cc(C=O)c(Br)cc1OCC(=O)NCc1ccccc1	-17%
41	Cc1ccccc1NC(=O)CN(C)S(=O)(=O)c1cccs1	-6%
42	COc1cc(/C=N/N=C2/C(=O)Nc3ccccc32)ccc1O	-6%
43	CC1CC(C)CN(C(=O)c2ccc(Br)c(S(=O)(=O)N3CCOCC3)c2)C1 (centres undefined)	17%
44	Cc1ccccc1OC(C)C(=O)Nc1cccnc1 (centres undefined)	15%
45	CCOc1ccc(CC(=O)NCCc2csc(-c3ccc(C)cc3)n2)cc1	-9%
46	CO/N=C/c1cn(-c2ccc(Cl)cc2)nn1	4%
47	CNC(=O)c1[nH]cnc1C(=O)NCC(=O)OCc1ccccc1	2%
48	CC(C)OC(=O)CC12CN(C)CC(CC(=O)OC(C)C)(CN(C)C1)C2=O	14%
49	CCOC(=O)c1csc(-c2sccc2Br)n1	2%
50	COc1ccc(C(=O)NCC(=O)N/N=C/c2cccc(OC(=O)c3ccco3)c2)cc1OC	-25%
51	Cc1cc(/C=C2/NC(=O)NC2=O)c(C)n1-c1cccnc1	-19%
52	CC(C)Cn1nc(NC(=O)C2CCCO2)c2cc3ccccc3nc21 (centres undefined)	-12%
53	COc1ccc(/C(C#N)=C/c2c(-c3ccc(Cl)cc3)nc3c(C)cccn23)cc1	14%
54	O=S(=O)(NCc1csc(-c2cccnc2)n1)c1ccc(F)cc1	2%
55	Cc1ccc(NC(=O)CCC(=O)c2ccc(Br)cc2)cc1	-5%
56	Cc1ccccc1N1C(=O)c2ccccc2C1Nc1cccnc1 (centres undefined)	-17%
57	O=C(O)c1cccc(N2C(=O)c3ccc(Oc4ccc(Cl)cc4)cc3C2=O)c1	-9%
58	COc1cc(OC)c(NC(=O)CCNS(=O)(=O)c2ccc3c(c2)oc(=O)n3C)cc1Cl	-8%&-4%
59	CC(=O)Nc1ccc(NC(=O)COC(=O)c2c(C)nn(-c3ccccc3)c2C)cc1	-7%
60	COc1ccc(C(=O)N/N=C(\C)CC(=O)Nc2ccc3c(c2)OCO3)cc1	-7%
61	C=CCOc1ccc(/C=C2\SC(N)=NC2=O)cc1OC	6%
62	C=CCNC(=O)c1onc(CSc2ccc(F)cc2)c1C(=O)O	7%
63	COc1ccc(C(=O)C(C)Oc2cccc(NC(=O)c3cccc([N+](=O)[O-])c3)c2)cc1 (centres undefined)	-5%
64	Cc1nc2ccccc2c(=O)n1-c1ccc(NS(=O)(=O)c2cc(F)ccc2F)cc1	-1%
65	Cc1cccc(-n2ncc3c(Nc4c(C)n(C)n(-c5ccccc5)c4=O)ncnc32)c1	-2%
66	c1ccc(CN(Cc2ccccc2)c2ncnc3c2nnn3Cc2ccccc2)cc1	-13%
67	O=C(COC(=O)c1ccccc1F)Nc1cccnc1Cl	9%
68	O=S(=O)(NCc1ccccc1)NCc1ccc(Cl)cc1Cl	10%
69	O=C(NC1CCCC1)c1cc2cc(Br)ccc2o1	-7%
70	CC1(C)CC(NC(=O)COc2ccc(Br)cc2Cl)CC(C)(C)N1	14%
71	COc1ccc(CCNC(=O)c2ccccc2C(=O)NCCc2ccc(OC)cc2)cc1	-19%
72	O=C(NCc1ccccc1)N1CCN(c2ccc(F)cc2)CC1	-25%
73	O=C(c1cc2ncc(Br)cn2n1)N1CCOCC1	13%
74	Cc1ccc(S(=O)(=O)CCc2nnc(NC(=O)CCl)s2)cc1C	3%
75	O=S(=O)(c1ccccc1)c1nc(NCc2ccccc2)sc1Cl	2%
76	O=C(COc1coc(CN2CCc3ccccc3C2)cc1=O)Nc1ccc(F)cc1	-2%
77	COC(=O)CNC(=O)CNC(=O)c1nn(-c2ccc(OC)c(OC)c2)c(=O)c2ccccc12	-15%
78	C[C@H]1CN([C@@H](C)CO)C(=O)c2cccc(NC(=O)Nc3ccc(C(F)(F)F)cc3)c2O[C@@H]1CN(C)C(=O)Nc1ccc(F)cc1	-1%
79	CCSc1nc(=S)cc(C)[nH]1	79µM*
80	O=c1[nH]c2ccccc2n1C1=CCCC1	7%
81	Cc1ccc(-c2nc(CSCC(=O)Nc3cc(C)on3)c(C)o2)cc1	-8%
82	O=C(CNC(=O)c1ccc(Br)cc1)c1ccccc1	-7%
83	COc1ccc(Cl)cc1NC(=O)C1CC(=O)N(C2CCCCC2)C1 (centres undefined)	-11%
84	Cc1cc(Cl)c2ccc3ccccc3c2n1	-6%
85	CC1(C)N=C(N)NC(Nc2ccccc2)=N1	1%
86	O=C(CSc1ccc(-c2cccnc2)nn1)Nc1ccccc1F	-24%
87	S=c1nc(C2COc3ccccc3O2)[nH][nH]1 (centres undefined)	?
88	COc1ccc(CC(=O)N(C)CC(=O)Nc2ccc(F)cc2)cc1S(=O)(=O)N1CCOCC1	-8%
89	Cc1cccc(NC(=O)NC2CCCCCCC2)c1C	-13%
90	C=CCn1c(N2CCN(c3ccc(OC)cc3)CC2)nc2c1c(=O)n(C)c(=O)n2C	1%

(continued)
cpd	Compound	VDR inh
91	O=C(O)C1CCCCC1C(=O)NCc1ccccc1 (centres undefined)	-28%
92	N#CCCN1CCN(S(=O)(=O)c2ccc(S(=O)(=O)NCc3ccccc3)cc2)CC1	-11%
93	Cc1ccc(/C(CSc2nccn2-c2ncc(C(F)(F)F)cc2Cl)=N\O)cc1	-4%
94	CC(C)NC(=O)C1=CC(c2ccc3c(c2)OCO3)=NS(=O)(=O)N1C	-3%
95	COc1ccc(N2CCN(C(=O)CSc3nc4ccccc4c(=O)[nH]3)CC2)cc1	2%
96	CC(C)c1ccc(NC(=O)c2ccc(=O)n(Cc3ccccc3)c2)cc1	9%
97	Cc1ccc(NS(=O)(=O)c2ccc(C(=O)N3CCC3)cc2)cc1	13%
98	O=C(NCC(=O)N1CCOCC1)c1ccc(Cl)cc1	12%
99	Cc1cc(S(=O)(=O)N2CCN(CC(=O)N(C)Cc3ccccc3)CC2)ccc1Br	-20%
100	CCN(CCCNC(=O)CN1C(=O)COc2ccccc21)c1ccccc1	-4%
101	O=C1c2ccccc2C(=O)N1Cc1nc2ccccc2c(=O)n1Cc1ccco1	-12%
102	COc1ccc(OC)c(-c2csc(-c3c(N)c(C(=O)c4ccc(Cl)cc4)n4ccccc34)n2)c1	1%
103	O=C(NCCN1CCN(c2ccccc2)CC1)C1CCCN(S(=O)(=O)c2cnc[nH]2)C1 (centres undefined)	-8%
104	O=C(COC(=O)[C@@H]1CC(O)CN1S(=O)(=O)c1ccc2c(c1)OCCO2)NCc1ccc(F)cc1 (some centres undefined)	-12%
105	FC(F)(F)c1cc(-c2cccs2)nc(NCc2ccco2)n1	-8%
106	O=C(NC1CCCC1)C(c1ccccn1)N(C(=O)c1csnn1)C1CCCC1 (centres undefined)	-2%
107	Nc1c(C(=O)NCc2ccco2)nnn1CC(=O)Nc1ccc2c(c1)OCO2	-24%
108	O=C(NC1CCCC1)c1cc(S(=O)(=O)N2CCOCC2)c(Cl)cc1Cl	-7%
109	CCN1CCCC1CNC(=O)c1ccc2c(=O)n(CCOC)c(=O)[nH]c2c1 (centres undefined)	-11%
110	COc1ccccc1NC(=O)CSc1nc2ccccc2c(=O)n1CC1CCCO1 (centres undefined)	-11%
111	COc1cc(OC)c2c(c1C(CCN1CCCC(C)C1)c1ccc(N(C)C)cc1)OC(=O)CC2c1ccc(N(C)C)cc1 (centres undefined)	11%
112	Cc1ccc(S(=O)(=O)N(C)c2c(C)ccc(S(=O)(=O)NC(C)(C)C)c2C)cc1	-7%
113	CCOc1cc(C(=O)Nc2cccc3cccnc23)cc(OCC)c1OCC	-16%
114	COc1cc(CN2CCN(C(=O)CC(C)C)CC2)c([N+](=O)[O-])cc1OC	-7%
115	c1ccc(-c2nc3ccccc3nc2-c2ccccn2)nc1	6%
116	Cc1cc(C(=O)OCC(=O)c2c(N)n(C)c(=O)n(C)c2=O)c(C)n1-c1ccccc1	-1%
117	Nc1ccccc1S(=O)(=O)c1ccccc1N	-3%
118	COc1cccc(OC)c1C(=O)OCC(=O)NC(=O)NCc1ccccc1	-6%
119	CSc1ccc(/C=N\Nc2nncn2N)cc1	-13%
120	O=C(NCc1ccco1)c1nc(-c2ccccc2)n(-c2ccccc2)n1	18%

2 entries drawn at random from the list so far:
cpd	Compound	VDR inh
91	O=C(O)C1CCCCC1C(=O)NCc1ccccc1 (centres undefined)	-28%
60	COc1ccc(C(=O)N/N=C(\C)CC(=O)Nc2ccc3c(c2)OCO3)cc1	-7%

The list goes on.
cpd	Compound	VDR inh
121	COc1ccc(CC(=O)Nc2cccc(C(=O)O)c2C)cc1	-6%
122	COc1ccc(CCNC(=O)c2cccnc2SC)cc1	-6%
123	O=C(Nc1ccc(F)cc1)Nc1nnc(Cc2ccccc2)s1	-12%
124	COc1cccc(-c2nnc3sc(C4CCCCC4)nn23)c1	-16%
125	Cc1nc(SCC(=O)Nc2c(C)n(C)n(-c3ccccc3)c2=O)nc(C)c1C	10%
126	CCc1ccc(C(=O)N2CCN(c3ccc(NC(=O)c4cccnc4)cc3)CC2)cc1	-4%
127	Cc1ccc(S(=O)(=O)n2[nH]c(=O)c(CCO)c2C)cc1	14%
128	CN1CCN(CCC(=O)Nc2ccc(F)c(F)c2)CC1	10%
129	O=C(NC(=S)Nc1nc2c(s1)CCCC2)c1ccc(C(=O)c2ccccc2)cc1	11%
130	Cc1cc(C)n(-c2ccc(Cl)c(C(=O)Nc3cc(C(F)(F)F)ccc3Cl)n2)n1	-17%
131	Cc1noc(NS(=O)(=O)c2ccc(NC(=O)COc3ccccc3)cc2)c1C	8%
132	CCOC(=O)c1[nH]c(C)c(C(=O)Nc2ccccc2F)c1C	?
